VDR inh = vitamin D3 receptor (human) inhibition | P11473 | VDR-SRC2-3 peptide fluorescence polarization, 2 h | 400,000 compounds, 0.93% hits | Potency, µM, without a hit: max response, negative = inhibition, usual class: inhibitors | AID 504847; active = well fitted inhibition curve with a large enough effect; inconclusive = small, poorly fitted or top-dose-only effect, or another doubt; inactive = no such curve, though single readings can be large or run the other way; also: series mostly up to about 120 µM
Target sequence (P11473 whole entry, looked up): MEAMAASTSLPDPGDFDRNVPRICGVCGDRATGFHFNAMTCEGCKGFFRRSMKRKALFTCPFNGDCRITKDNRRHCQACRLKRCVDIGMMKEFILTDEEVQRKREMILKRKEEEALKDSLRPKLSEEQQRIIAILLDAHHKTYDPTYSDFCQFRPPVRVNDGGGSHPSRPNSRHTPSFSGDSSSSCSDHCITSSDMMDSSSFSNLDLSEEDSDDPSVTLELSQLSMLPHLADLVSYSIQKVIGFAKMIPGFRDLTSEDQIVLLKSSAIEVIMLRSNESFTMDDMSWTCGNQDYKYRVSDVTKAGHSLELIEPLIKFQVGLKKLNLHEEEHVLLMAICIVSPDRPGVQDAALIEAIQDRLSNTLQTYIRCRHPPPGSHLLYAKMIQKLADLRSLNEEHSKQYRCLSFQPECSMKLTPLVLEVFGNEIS
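FP read-out; VDR + SRC2-3 coactivator peptide; 23 nl compound by pintool; 2 h RT incubation; reagents held at 4 deg C, protected from light.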
* = called active by the depositor; & = joins results of further samples; [ ] = another dose, or the depositor's remark. % is scaled to controls: 0 for no effect and ±100 for the full control effect; potency is read from the fitted curve at half-maximal effect.

CC(=O)c1cccc(N(CC(=O)Nc2ccc(F)cc2F)S(C)(=O)=O)c1 was read as VDR inh -5%.
For O=C(NC(=S)NN1CCCCC1c1cccnc1)c1ccc(Br)cc1 (centres undefined) the results were VDR inh -7%.
`CCOC(=O)C1=CN(CC2CCCCC2)CCC1=O` gave VDR inh -6%.
Screening COc1ccccc1CCNC(=O)CCNS(=O)(=O)c1ccc(NC(C)=O)cc1 returned VDR inh -2%.
For CCN(CCn1cccn1)C(=O)c1ccc(OC2CCN(C(=O)COC)CC2)cc1 the results were VDR inh -11%.
For O=C(CCC(=O)Nc1ccc(Cl)cc1Cl)N/N=C/c1ccc([N+](=O)[O-])o1 the results were VDR inh 12%.
Screening Cn1ccnc1C(=O)c1cc(SCC(=O)N2CCOCC2)nc2ccccc12 returned VDR inh -2%.
Screening CCC(C)(C)C1CCc2[nH]nc(C(=O)NCCCNC(=O)OC(C)(C)C)c2C1 (centres undefined) returned VDR inh -14%.
For COc1cc(NC(=O)Cn2ncc3c([nH]c4ccc(C)cc43)c2=O)cc(OC)c1OC the results were VDR inh -3%.
`O=C(Oc1cccc2ccccc12)c1ccncc1` gave VDR inh -5%.
`c1ccc2c(SCc3cn4cccnc4n3)ncnc2c1` gave VDR inh 2%.
`COC(=O)[C@H](CC(C)C)NC(=O)N1CCN(c2cccc(C(F)(F)F)c2)CC1` gave VDR inh -17%.
Cc1cc(C)c(NC(=O)Cn2nnc(C(=O)Nc3ccc(F)cc3F)c2N)c(C)c1 was read as VDR inh -1%&5%.
COc1ccc(S(=O)(=O)NCC2CCCN(Cc3ccccc3C)C2)cc1 (centres undefined) was read as VDR inh -21%.
For CC(=O)c1cccc(OCc2cc(C(=O)N(C)Cc3ccc(C)o3)no2)c1 the results were VDR inh inconclusive.
For Cc1cc(C)n(-c2ccc(NC(=O)C3CCCCN3C(=O)c3ccoc3C)cc2)n1 (centres undefined) the results were VDR inh 8%.
Screening Nc1cc(=O)nc(SCC(=O)N2CCN(c3ccccc3)CC2)n1-c1ccc(F)cc1 returned VDR inh 1%.
CC(C)c1ccc(S(=O)(=O)N2CCN(C(=O)C3=COCCO3)CC2)cc1 was read as VDR inh 9%.
Screening COCCNC(=O)C1CCCN(S(=O)(=O)c2cccc3nsnc23)C1 (centres undefined) returned VDR inh -10%.
CC(=O)c1cccc(NC(=O)CCNS(=O)(=O)c2cccc(C(C)=O)c2)c1 was read as VDR inh 10%.
`CCOC(=O)/C=C1\SCC(=O)N1CC(=O)NCCOC` gave VDR inh 10%.
Oc1ccccc1C=Nc1cccc2ccccc12 was read as VDR inh -12%.
Screening C=CCNC(=O)CSc1n[nH]c(-c2cc(Cl)ccc2OC)n1 returned VDR inh 14%.
Screening Cc1c(Cl)cccc1NC(=S)N1CCC(C(N)=O)(N2CCCCC2)CC1 returned VDR inh -5%.
For C=CCn1c(COc2cccc3ccc(C)nc23)nnc1SCC(=O)O the results were VDR inh -21%.
COc1cc(Br)c(CCNC(=O)Cc2ccccc2)cc1OC was read as VDR inh -1%.
O=C(CSC(=S)N1CCOCC1)c1cc2ccccc2oc1=O was read as VDR inh -8%.
Screening Cc1cc(O)cc2c1C(=O)/C(=C/c1ccco1)O2 returned VDR inh 4%.
`CSCCC1NC2(C(=O)Nc3c(C)cc(Cl)cc32)[C@@H]2C(=O)N(C3CCCC3)C(=O)[C@H]12` (some centres undefined) gave VDR inh -6%.
Screening O=C(CN1C(=O)CC(c2ccco2)Sc2ccccc21)NCc1ccc2c(c1)OCO2 (centres undefined) returned VDR inh -7%.
CCOc1ncccc1C(=O)Nc1ccc(OC)c(S(=O)(=O)N2CCCCC2)c1 was read as VDR inh -1%.
`Cc1cccc(NC(=S)N(c2ccccc2)C(C)C)c1C` gave VDR inh -15%.
Screening CNC(=S)N(C)/N=C1/C(=O)N(Cc2c(Cl)cccc2Cl)c2ccccc21 returned VDR inh -26%.
`CCOC(=O)c1ccc(N2C(=O)c3n[nH]c(C)c3C2c2ccco2)cc1` (centres undefined) gave VDR inh -9%.
C/C(=N\Nc1ccccc1)c1c(O)cc(C)oc1=O was read as VDR inh -5%.
Screening CCOc1ccc(-n2nc3c(=O)n(CCN4CCCCC4)nc(C)c3c2C)cc1 returned VDR inh 3%.
`CCOc1ccc(CCNC(=O)c2ccc(C)c(N3CCCC3=O)c2)cc1OCC` gave VDR inh -9%.
`O=C(OCC(=O)N1CCCC1)c1c(Cl)ccc(Cl)c1Cl` gave VDR inh -13%.
Screening Nc1cc(-c2ccc(Br)cc2)[nH]n1 returned VDR inh -8%.
Screening C=CCC(C=C)[N+]1(CC(=O)OC)CCCCC1 (centres undefined) returned VDR inh 6%.
Screening CN(C)c1ccc(C(CNC(=O)COc2ccc(Cl)cc2)N2CCOCC2)cc1 (centres undefined) returned VDR inh 2%.
For COc1ccccc1NC(=O)c1oc2ccccc2c1NC(=O)c1c(F)cccc1F the results were VDR inh -14%.
`O=C(NNc1nccc(C(F)(F)F)n1)Nc1cccc(Cl)c1` gave VDR inh 21%.
For Cn1nc(CC(=O)Nc2cccc3ncccc23)c2ccccc2c1=O the results were VDR inh -4%.
For COc1cc(OC)cc(C(=O)NCCCN2CCOCC2)c1 the results were VDR inh -3%.
For COc1ccnc(NCc2cccc(C(F)(F)F)c2)c1C#N the results were VDR inh -10%.
`CCCc1cc(=O)[nH]c(NCCc2ccccc2)n1` gave VDR inh -1%.
O=C(CCn1c(=O)c2sccc2n(CC(=O)OCc2ccccc2)c1=O)NCc1ccccc1 was read as VDR inh 19%.
Screening Cc1ccc(C(=O)CC2C(=O)N(c3ccccc3)C(=S)N2c2ccccc2)cc1 (centres undefined) returned VDR inh -2%.
O=C(CN1CCN(Cc2ccccc2)C1=O)NCc1ccc(Cl)cc1 was read as VDR inh 8%.
Screening O=C(CNC(=O)C1CCCCC1)OCC(=O)c1ccc2c(c1)CCC2 returned VDR inh 0%.
`CCCN1C(=O)c2cc(C(=O)NCCc3cccc(C)c3)ccc2C1O` (centres undefined) gave VDR inh -16%.
Screening Cc1cc(NC(=O)c2ccoc2C)no1 returned VDR inh -5%.
`CC1CCN(c2nc3nonc3nc2Nc2ccc(F)cc2)CC1` gave VDR inh 12%.
`N#CCc1nn(-c2ccc(F)cc2)c(N)c1C#N` gave VDR inh -17%.
O=C(O)Cc1cc(=O)[nH]n(-c2ccccc2)c1=O was read as VDR inh 18%.
`COc1ccc(F)c(CN2CCC(n3nccc3NC(=O)C3CCOC3)CC2)c1` (centres undefined) gave VDR inh 12%.
For C[C@H](NC(=O)N1CCC(Cc2ccccc2)CC1)C(=O)O the results were VDR inh 6%.
Screening CCc1ccccc1NC(=O)CSc1nnc(-c2cc(C)[nH]n2)n1N returned VDR inh -2%.
Cc1cccc(Nc2nnc(SCC(=O)NCc3cccs3)s2)c1C was read as VDR inh -12%.
Screening Cc1ccc(NC(=O)CN2C(=O)NC3(CCCc4ccccc43)C2=O)c([N+](=O)[O-])c1 (centres undefined) returned VDR inh -7%.
For CC(OC(=O)CCN1C(=O)c2cccc([N+](=O)[O-])c2C1=O)C(=O)Nc1cc(Cl)cc(Cl)c1 (centres undefined) the results were VDR inh -7%.
`CCOC(=O)C1(CCc2ccccc2)CCN(C(=O)c2ccoc2)CC1` gave VDR inh -14%.
COc1ccc(C(=O)CCC(=O)N2CCN(c3ccc([N+](=O)[O-])cc3)CC2)cc1 was read as VDR inh -18%.
Screening c1ccc(-c2ccc(-c3nc(-c4cccnc4)no3)cc2)cc1 returned VDR inh -3%.
For CCn1c(C(=O)N2CCC(C(=O)NCc3ccc(OC)cc3)CC2)cc2sccc21 the results were VDR inh -8%.
`O=C1C=C(c2cccnc2)CCC1` gave VDR inh -2%.
`O=C(NN1CCOCC1)NC12CC3CC(CC(C3)C1)C2` gave VDR inh -6%.
Screening CSCC[C@H](NC(=O)NCCc1ccc(F)cc1)C(=O)O returned VDR inh -15%.
Screening CC(C)(C)NC(=O)C(c1ccncc1)N(Cc1cccs1)C(=O)Cn1nnc(-c2ccc(F)cc2)n1 (centres undefined) returned VDR inh -1%.
For C=CCNc1ccc(F)c(F)c1N1CCCCCC1=O the results were VDR inh 4%.
`Cc1ccc2c(CC(=O)Nc3nnc(C(C)C)s3)coc2c1C` gave VDR inh 9%.
For COc1ccc(NC(=O)CN(C)C(=O)CCSc2ccc(F)cc2)cc1 the results were VDR inh 3%.
`CCOC(=O)Cn1c(CN2CCc3ccccc3C2)nc2c1c(=O)n(C)c(=O)n2C` gave VDR inh -5%.
CCOc1cc(CNCc2ccncc2)cc(Br)c1OCc1ccc(F)cc1 was read as VDR inh 10%.
`CCOC(=O)c1ccc(N=c2sc(C(=O)OC)cc(=O)n2C2CC2)cc1` gave VDR inh -9%.
Screening CCCCC(=O)Nc1nnc(-c2ccco2)o1 returned VDR inh 12%.
COc1ccc(C(=O)OCC(=O)N2CCN(S(=O)(=O)c3ccc(C)cc3)CC2)cc1[N+](=O)[O-] was read as VDR inh 82%[activator].
For CN(C)S(=O)(=O)c1ccc(C(=O)NCc2ccccc2)cc1 the results were VDR inh -22%.
`CCN(CC)C(=O)c1cccc(NC(=O)C2CCN(C(=O)c3cccs3)CC2)c1` gave VDR inh 20%.
Screening CCOC(=O)c1sc(N=NC2=C(O)CC(C)(C)CC2=O)c(C(=O)OCC)c1C returned VDR inh 9%.
For O=C(c1ccco1)N1CCN(C(=O)N2CCOCC2)CC1 the results were VDR inh 3%.
`O=C(O)CCC(=O)Nc1sc2c(c1C(=O)Nc1cccc3ccccc13)CCCCC2` gave VDR inh inconclusive.
Cc1nn(-c2ccccc2)c(C)c1C(=O)NCc1ccc(F)cc1 was read as VDR inh -1%.
`CCOc1ccccc1NC(=O)NC1CC2CCCC(C1)N2Cc1nnnn1CCc1ccccc1` (centres undefined) gave VDR inh 16%.
O=C(Cn1cnc([N+](=O)[O-])n1)N/N=C/c1cc(Cl)ccc1O was read as VDR inh -11%.
For COc1ccc2oc(C(=O)OCC(=O)Nc3ccc(C(=O)N(C)C)cc3)c(C)c2c1 the results were VDR inh -21%.
COc1ccc(Cl)cc1S(=O)(=O)N1CCC(C(=O)NCCc2ccccc2)CC1 was read as VDR inh -5%.
`COC(=O)c1cc(Nc2cc(C)c3ccc(O)cc3n2)cc(C(=O)OC)c1` gave VDR inh 3%.
O=C(NCCc1ccccc1)C(=O)NC1CCCCC1 was read as VDR inh -9%.
CC1CC(C)CN(C(=O)COC(=O)c2ccc(Cl)nc2)C1 (centres undefined) was read as VDR inh -18%.
`Cc1nc(-c2ccc(NC(=O)c3ccco3)cc2)cs1` gave VDR inh 22%.
For CC(C)c1nc(CNC(=O)c2cc(COc3c(F)cccc3F)on2)cs1 the results were VDR inh -8%.
`CSc1nc(C(=O)N2CCc3c([nH]c4ccccc34)C2c2ccccn2)cs1` (centres undefined) gave VDR inh 1%.
For CCOC(=O)c1c(NC(=S)NCc2ccccc2)sc2c1CCN(C(=O)OCC)C2 the results were VDR inh 3%.
`Cc1cc(C)cc(CC2CC(=O)N(c3ccc(Cl)cn3)C2=O)c1` (centres undefined) gave VDR inh 11%.
`CCOC(=O)c1c(C)c(-c2ccccc2)n(CC(=O)Nc2cc(OC)cc(OC)c2)c1C` gave VDR inh 7%.
`CCOC(=O)C1CCN(C(=O)Cn2c(=O)oc3cc(S(=O)(=O)N4CCC(C)CC4)ccc32)CC1` gave VDR inh -3%.
O=C(O)c1ccccc1C(=O)NNc1ccc(Cl)cc1Cl was read as VDR inh -14%.
For COc1ccccc1-c1nc2ccccc2c(=O)n1O the results were VDR inh -15%.
Screening O=C(N1CCCCCC1)N1CCN(S(=O)(=O)c2ccccc2)CC1 returned VDR inh 5%.
For COC(=O)C(O)(NC(=O)OCc1ccccc1)C(F)(F)F (centres undefined) the results were VDR inh -2%.
COc1ccccc1N1C(=O)C2C(C(=O)c3ccccc3)=NN(c3ccc(Br)cc3)C2C1=O (centres undefined) was read as VDR inh 5%.
COc1cc2c(cc1OC)C1(C)N(CC2)C(C(C)=O)=NN1c1ccc(Cl)cc1 (centres undefined) was read as VDR inh 9%.
`O=C(NC1CCSC1=O)c1ccc(Cl)cc1` (centres undefined) gave VDR inh 6%.
For Cc1ccc(N2CC(C(=O)Nc3nccs3)CC2=O)cc1Cl (centres undefined) the results were VDR inh 2%.
For COc1cccc(NC(=O)C2C3C=CC4(O3)C2C(=O)N(CCCN2CCCC(C)C2)C4C(=O)NC2CCCCC2C)c1 (centres undefined) the results were VDR inh -8%.

Compounds shown so far that have a furan ring, fused or not (14):
For O=C(CCC(=O)Nc1ccc(Cl)cc1Cl)N/N=C/c1ccc([N+](=O)[O-])o1 the results were VDR inh 12%.
For CC(=O)c1cccc(OCc2cc(C(=O)N(C)Cc3ccc(C)o3)no2)c1 the results were VDR inh inconclusive.
For Cc1cc(C)n(-c2ccc(NC(=O)C3CCCCN3C(=O)c3ccoc3C)cc2)n1 (centres undefined) the results were VDR inh 8%.
Screening Cc1cc(O)cc2c1C(=O)/C(=C/c1ccco1)O2 returned VDR inh 4%.
Screening O=C(CN1C(=O)CC(c2ccco2)Sc2ccccc21)NCc1ccc2c(c1)OCO2 (centres undefined) returned VDR inh -7%.
`CCOC(=O)c1ccc(N2C(=O)c3n[nH]c(C)c3C2c2ccco2)cc1` (centres undefined) gave VDR inh -9%.
For COc1ccccc1NC(=O)c1oc2ccccc2c1NC(=O)c1c(F)cccc1F the results were VDR inh -14%.
Screening Cc1cc(NC(=O)c2ccoc2C)no1 returned VDR inh -5%.
`CCOC(=O)C1(CCc2ccccc2)CCN(C(=O)c2ccoc2)CC1` gave VDR inh -14%.
`Cc1ccc2c(CC(=O)Nc3nnc(C(C)C)s3)coc2c1C` gave VDR inh 9%.
Screening CCCCC(=O)Nc1nnc(-c2ccco2)o1 returned VDR inh 12%.
For O=C(c1ccco1)N1CCN(C(=O)N2CCOCC2)CC1 the results were VDR inh 3%.
For COc1ccc2oc(C(=O)OCC(=O)Nc3ccc(C(=O)N(C)C)cc3)c(C)c2c1 the results were VDR inh -21%.
`Cc1nc(-c2ccc(NC(=O)c3ccco3)cc2)cs1` gave VDR inh 22%.

High-throughput results from PubChem.

Some of the compounds tested, so the mix of outcomes need not match the whole.
